# Screening data as filed in PubChem BioAssay.
# MITF inhib: MITF inhibition; TRPM1 promoter luciferase, luminescence, 24 h; inhibition, % (no concentration beside the values); 0.28% of 37,000 active; AID 2240;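 active = most replicates at 85% or more, or half of them and the mean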;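 note: human melanocyte line stably carrying TRPM1 promoter luciferase reporter; 0% = vehicle wells and 100% = a positive control; the first replicate is given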
# The depositor's hits bear a star. A portion of the library; rates above refer to the full screens.
SMILES,MITF inhib
CC(C)c1ccc(NC(=O)CNS(=O)(=O)c2ccc(Br)cc2)cc1,10
COc1ccc(NC(=S)NCc2cn(-c3ccccc3)nc2-c2ccccc2)cc1OC,30
CCOC(=O)c1cc(C2COc3ccccc3O2)sc1NC(=S)NC(=O)c1ccccc1 (stereo not given),-18
COc1ccc(OC)c(NC(=O)C2CC(=O)n3ncnc3N2)c1 (stereo not given),-12
O=C(CC1NCCNC1=O)Nc1ccccc1[N+](=O)[O-] (stereo not given),-6
CCC1(C)Cc2c(sc3nc(SC)nc(SCC(=O)Nc4ccc(C)cc4)c23)CO1 (stereo not given),13
CCN(CC(=O)Nc1cccc2ccccc12)S(=O)(=O)c1ccc2ccccc2c1,-8
COc1ccc(OC)c(S(=O)(=O)Nc2cc3c(C(C)=O)c(C)oc3c3ccccc23)c1,48
CS(=O)(=O)N(CC(=O)NC1CC1)c1cccc(F)c1,9
O=C(CSc1nc2cc3ccccc3cc2[nH]1)Nc1ccccc1Cl,26
CCOc1ccc(C)cc1S(=O)(=O)n1nnc2ccccc21,5
O=C(Nc1nc2ccccc2n1CCN1CCOCC1)c1ccccc1,3
O=C(CSc1nc2sc3c(c2c(=O)n1-c1ccccc1)CCCC3)Nc1ccccc1,-3
CS(=O)(=O)N1CCN(CC(O)Cn2c3ccc(Cl)cc3c3cc(Cl)ccc32)CC1 (stereo not given),-10
CC(=O)CCc1c(C)[nH]c2ccccc2c1=O,-19
O=C(CSc1nnc(-c2ccc(Br)cc2)o1)Nc1cccc(C(=O)N2CCOCC2)c1,-34
CCOc1cc(C2N=C(Nc3nc4ccccc4o3)NC3=C2C(=O)CC(C)(C)C3)ccc1O (stereo not given),-16
CNc1nc(SC(C)C(=O)Nc2ccc(Cl)c(Cl)c2)nc(N2CCOCC2)n1 (stereo not given),13
COc1ccc(NC(=O)C(=O)NCCCO)c(OC)c1,-29
Cc1cc(C)c(C)c(OCC(O)Cn2cnc3ccccc32)c1 (stereo not given),40
COc1ccc(CCNC(=O)Nc2ccc([N+](=O)[O-])cc2)cc1OC,20
O=C(Cn1c(-c2cncs2)nc2ccccc21)NCc1ccccc1,-23
CC(=O)c1cccc(NC(=S)NCc2ccccn2)c1,-21
CC(Oc1cccc(NC(=O)c2ccc([N+](=O)[O-])cc2)c1)C(=O)c1cccc(Cl)c1 (stereo not given),47
CSc1nc(SCC(=O)N(c2ccccc2)c2ccccc2)c2c3c(sc2n1)CCC3,-7

# Brought forward from above: two compounds, then new ones.
SMILES,MITF inhib
CC(Oc1cccc(NC(=O)c2ccc([N+](=O)[O-])cc2)c1)C(=O)c1cccc(Cl)c1 (stereo not given),47
CSc1nc(SCC(=O)N(c2ccccc2)c2ccccc2)c2c3c(sc2n1)CCC3,-7
CC(=O)Nc1ccc2c(c1)nc1n2CCN(Cc2ccco2)C1,-59
COc1ccc(NC(=O)C(C)N2c3cccc4cccc(c34)S2(=O)=O)c(OC)c1 (stereo not given),0
O=C(CSc1n[nH]c(-c2ccccc2Cl)n1)NC1CCCCC1,-3
Cc1ccc(NC(=O)c2ccc(OCC(=O)Nc3ccc(Oc4ccccc4)cc3)cc2)c(C)c1,-7
O=C(CN1C(=O)CNC1=O)Nc1cccc(C(F)(F)F)c1,-22
CC(C)OC(=O)CSc1nnc(-c2cnccn2)n1-c1ccccc1,4
COc1ccc(C(=O)NCCCN2CCCC2=O)cc1[N+](=O)[O-],-33
Cc1ccc(NC(=O)CSc2nnnn2C)c(C)c1,-29
O=C(NCc1ccco1)C1(c2ccccc2)CCOCC1,-12
O=C(CC1(O)C(=O)N(Cc2cccc3ccccc23)c2ccccc21)c1ccc(F)cc1 (stereo not given),45
O=C(CC1(O)C(=O)N(CCc2ccccc2)c2ccc(Br)cc21)c1ccncc1 (stereo not given),-2
O=C(Cn1cnc2ccccc2c1=O)NCc1ccco1,-8
COc1ccccc1N1CCN(CC(=O)Nc2ccc([N+](=O)[O-])cc2C(=O)Nc2ccccc2F)CC1,-11
O=C(CCn1cnc2ccccc2c1=O)Nc1ccc2c3c(cccc13)CC2,8
Cc1ccc(NC(=O)CSc2nnnn2-c2ccc(Cl)c(C(=O)O)c2)cc1C,5
COc1ccccc1-c1nc(SCC(=O)c2ccc(O)c(O)c2)n[nH]1,13
COc1ccccc1NC(=O)CNC(=O)c1ccc(C)cc1,-14
COc1ccc(-c2cc(C(F)(F)F)n3nc(C(=O)NCCN4CCOCC4)c(Br)c3n2)cc1,-2
N#Cc1ccccc1CSc1ncn[nH]1,-17
O=C(O)CCC(=O)Nc1ccc(F)cc1,-5
COC(=O)C(NC(=O)c1ccccc1)(c1c(C)[nH]n(-c2ccccc2)c1=O)C(F)(F)F (stereo not given),2
O=C(O)c1[nH]c2ccccc2c1C(c1ccccc1)c1c(C(=O)O)[nH]c2ccccc12,-1
COc1ccc(CN2C(=O)C(O)(CC(=O)c3c(C)coc3C)c3ccccc32)cc1OC (stereo not given),22
Cc1ccc(-c2nc3cc(NC(=O)COc4ccccc4Cl)ccc3o2)c(C)c1,-69
COc1ccccc1NC(=O)C1=C(C)NC(SCC(N)=O)=C(C#N)C1c1ccccc1 (stereo not given),-13

# Structural class, the entries above with a COOH group (3)
SMILES,MITF inhib
Cc1ccc(NC(=O)CSc2nnnn2-c2ccc(Cl)c(C(=O)O)c2)cc1C,5
O=C(O)CCC(=O)Nc1ccc(F)cc1,-5
O=C(O)c1[nH]c2ccccc2c1C(c1ccccc1)c1c(C(=O)O)[nH]c2ccccc12,-1

# The listing continues:
SMILES,MITF inhib
OCCCNc1ncnc2oc(-c3ccccc3)c(-c3ccccc3)c12,-5
COc1ccc(NC(=O)COc2ccc([N+](=O)[O-])cc2)c(OC)c1,-8
COc1ccc(CNc2nc3ccccc3n2C)c(O)c1,-103
Cn1c(SCC(=O)Nc2ccc(Oc3ccc(Cl)cc3)cc2)nnc1-c1ccccc1O,42
C=CCn1c2ccccc2c2nnc(SCC(=O)c3ccc(C)cc3)nc21,0
COc1ccc(C)cc1S(=O)(=O)N(C)CC(=O)Nc1cccc(C(F)(F)F)c1,11
CCOC(=O)c1c(C)n(C)c2ccc(OC(=O)CN3C(=O)c4ccccc4C3=O)cc12,-8
Clc1ccc(CSc2nnc(-c3cccs3)n2Cc2ccco2)c(Cl)c1,5
Oc1c(C(Nc2cccnc2)c2ccc(C(F)(F)F)cc2)ccc2cccnc12 (stereo not given),67
Cc1cccc(NC(c2ccc([N+](=O)[O-])cc2)c2ccc3ccc(C)nc3c2O)n1 (stereo not given),44
COc1ccc(C2(CNC(=O)C3COc4ccccc4O3)CCCC2)cc1OC (stereo not given),2
COc1cccc(C(=O)NC(c2ccc([N+](=O)[O-])cc2)c2c(O)ccc3ccccc23)c1 (stereo not given),78
Cc1cc(C)cc(NC(=O)CSc2nc3ccccc3s2)c1,36
CCOC(=O)c1c(C)n(C)c2ccc(OCC(N)=O)cc12,-7
O=C1c2ccccc2C(=O)N1CCCc1nc2ccccc2c(=O)n1-c1nc2ccccc2s1,-81
CCOc1ccc(NC(=O)Cn2cnc3scc(-c4ccc(C)cc4)c3c2=O)cc1,28
COc1ccc(S(=O)(=O)NCc2ccco2)cc1-c1nnc2c3ccccc3c(C)nn12,-17
O=C(CSC1CC(=O)N(c2ccc(Cl)cc2)C1=O)Nc1ccc(Cl)cc1 (stereo not given),-7
O=C(CCN1C(=O)C2C3C=CC(C4CC34)C2C1=O)Nc1ccc(Cl)cc1O (stereo not given),-8
COc1ccc(C)cc1N(CC(=O)Nc1ccccc1C(F)(F)F)S(C)(=O)=O,-1
COc1cc(NC(=O)Cn2nc(C(F)(F)F)c(Br)c2C)cc([N+](=O)[O-])c1,23
O=C(NC(=S)Nc1ccc(S(=O)(=O)Nc2nccs2)cc1)c1ccc(Br)o1,8
COc1cccc(NC(=O)COc2ccccc2C(=O)Nc2c(C)cccc2C)c1,14
Cc1cc2oc(C(=O)Nc3sc4c(c3C(=O)NCc3ccco3)CCC4)c(C)c2cc1C,0
COc1cc(NC(=O)COc2ccc([N+](=O)[O-])cc2)cc(OC)c1,-51

# Copied from the list.
# Value for COc1cccc(NC(=O)COc2ccccc2C(=O)Nc2c(C)cccc2C)c1 in MITF inhib: 14
# Value for COc1cc(NC(=O)COc2ccc([N+](=O)[O-])cc2)cc(OC)c1 in MITF inhib: -51
# Value for COc1ccc(C)cc1N(CC(=O)Nc1ccccc1C(F)(F)F)S(C)(=O)=O in MITF inhib: -1
# Value for Oc1c(C(Nc2cccnc2)c2ccc(C(F)(F)F)cc2)ccc2cccnc12 (stereo not given) in MITF inhib: 67
# Value for C=CCn1c2ccccc2c2nnc(SCC(=O)c3ccc(C)cc3)nc21 in MITF inhib: 0
# Value for COc1ccc(C2(CNC(=O)C3COc4ccccc4O3)CCCC2)cc1OC (stereo not given) in MITF inhib: 2
# Value for O=C(CCN1C(=O)C2C3C=CC(C4CC34)C2C1=O)Nc1ccc(Cl)cc1O (stereo not given) in MITF inhib: -8

# Some of the entries above, set out differently:
structure	MITF inhib
Cn1c(SCC(=O)Nc2ccc(Oc3ccc(Cl)cc3)cc2)nnc1-c1ccccc1O	42
C=CCn1c2ccccc2c2nnc(SCC(=O)c3ccc(C)cc3)nc21	0
COc1ccc(C)cc1S(=O)(=O)N(C)CC(=O)Nc1cccc(C(F)(F)F)c1	11

# Additional compounds:
SMILES,MITF inhib
CCOc1ccc(NC(=O)CSc2nnc3c4c5c(sc4nc(SC)n23)CCC5)cc1,-9
CC(=O)Oc1ccc(C(=O)Nc2ccc(S(=O)(=O)Nc3nccs3)cc2)cc1,-9
O=C(CSc1ncccc1C(=O)O)c1cccc([N+](=O)[O-])c1,3
Cc1ccccc1-n1nnnc1C(c1ccccc1)N(C)Cc1cccc([N+](=O)[O-])c1 (stereo not given),-3
Cn1c(SCc2nc(-c3cccs3)no2)nnc1C1CCCCC1,2
CC(=O)c1cccc(N(CC(=O)Nc2ccccc2C)S(C)(=O)=O)c1,-7
CCN(CC(=O)Nc1ccccc1)S(=O)(=O)c1ccc(F)cc1,-13
COC(=O)c1ccccc1S(=O)(=O)NC(=O)c1ccccc1,-12
COc1ccc(Cl)c(Cn2c(NC3CCCCC3)nc3c2c(=O)n(C)c(=O)n3C)c1,2
CC(=O)Nc1cccc(NC(=O)c2cc(-c3cccnc3)nc3ccc(Br)cc23)c1,-28
O=C(O)CSc1nnc2n(CCc3ccccc3)c(=O)c3c4c(sc3n12)CCCC4,-18
Cc1ccc(NC(=O)C(C)n2nc([N+](=O)[O-])c(Br)c2C)cc1Cl (stereo not given),-14
NC(=O)c1c(NC(=O)COc2ccc(Br)cc2Cl)sc2c1CCCC2,-24
Cc1c(Cl)cccc1NC(=O)CCC(=O)O,-8
Cc1cc(C)nc(Nc2n[nH]c(COc3ccccc3)n2)n1,-74
CCn1c(SCC(=O)Nc2ccc(Br)cc2F)nnc1-c1ccccc1Cl,19
N#Cc1ccc(NC(=O)CCCn2cc([N+](=O)[O-])cn2)cc1,-16
Cc1cc(C(F)(F)F)nc(SCC(=O)Nc2sc3c(c2C#N)CCCC3)n1,5
O=c1[nH]c(CSc2nnc(-c3cccnc3)n2C2CCCCC2)nc2ccccc12,-4
COC(=O)c1ccccc1NC(=O)c1ccc(NC(=O)CSc2ccc(C)cc2)cc1,-4
N#Cc1c(NC(=O)COc2ccc(C(=O)Nc3cc(Cl)ccc3Cl)cc2)sc2c1CCC2,-3
Cc1cc(C)c2nc(-c3ccccn3)cc(C(=O)NCc3cc(C)n(C)n3)c2c1,25
COC(=O)c1ccccc1NC(=O)CSc1n[nH]c(C)n1,-3
Cc1ccc(NC(=O)COc2ccccc2Cl)c([N+](=O)[O-])c1,-115
CCn1c2ccccc2c2cc(NC(=O)CSc3nnnn3-c3ccccc3)ccc21,24
# (further entries)
SMILES,MITF inhib
Cc1ccc(NC(=O)CSCc2n[nH]c(=O)[nH]2)c(Br)c1,-3
CC(Oc1ccc(Cl)cc1Cl)C(=O)Nc1ccccc1C(=O)NC1CCCCC1 (stereo not given),1
COc1ccc(OC)c(C2C(C(=O)c3cccs3)C(=O)C(=O)N2Cc2cccnc2)c1 (stereo not given),-2
COc1ccc(-c2c(C#N)c(SCC(=O)Nc3cccc(F)c3)nc3c2CCC3)cc1,16
COc1ccc(C)cc1NC(=O)CN1C(=O)CN(c2ccccc2)C1=O,-6
CCc1ccc(OCC(=O)Nc2ccc3oc(-c4ccccc4F)nc3c2)cc1,17
CC(Oc1cccc(Cl)c1)c1nc(-c2cccnc2)no1 (stereo not given),-47
Cc1nn2c(CN(C(=O)c3cccs3)c3ccccc3)nnc2c2ccccc12,30
COc1ccc(S(=O)(=O)N(C)CC(=O)Nc2ccccc2)cc1C,4
COc1cc(OC)cc(C2C(C#N)=C(N)Oc3n[nH]c(-c4cccnc4)c32)c1 (stereo not given),4
CCOC(=O)c1c(NC(=O)C(C)Oc2ccc3c(C)cc(=O)oc3c2)sc2c1CCC2 (stereo not given),-7
O=C(O)C1CCCCC1C(=O)Nc1cccc2ccccc12 (stereo not given),4
Cc1cc2nc(-c3ccc(NC(=O)COc4ccc([N+](=O)[O-])cc4)cc3)oc2cc1C,-26
O=C(CSCc1ccccc1Cl)Nc1c[nH]c(=O)[nH]c1=O,-8
O=C(CSc1nc(Nc2ccccc2)nc(N2CCOCC2)n1)N1CCc2ccccc21,-104
Cc1cc(Cl)c(S(=O)(=O)N2CCc3ccccc32)cc1OCC(N)=O,9
COc1ccc(-c2nn(C)c(=O)c3ccccc23)cc1CNC(=O)CN1CCOCC1,-8
COC(=O)c1ccc(NC(=O)CSc2n[nH]c(-c3ccncc3)n2)cc1,-9
COc1ccc(OC)c(-n2c(CNC3CCN(Cc4ccccc4)CC3)nc3ccccc3c2=O)c1,4
Cn1c(SCC(=O)c2ccc(F)cc2)nnc1-c1cccc([N+](=O)[O-])c1,-7
COc1ccc(NC(=O)CSc2nnc(N)s2)c(OC)c1,3
COC(=O)c1ccc(OCC(=O)Nc2ccc(C(C)=O)cc2)cc1,-38
CCOC(=O)C1CCCN(S(=O)(=O)c2cccc3cccnc23)C1 (stereo not given),5
Cc1onc(-c2ccccc2Cl)c1C(=O)Nc1ccc(S(=O)(=O)Nc2nccs2)cc1,-14
Cc1ccc2c(C)c(C(=O)Nc3sc4c(c3C(=O)NCC3CCCO3)CCC4)oc2c1 (stereo not given),-13
COc1ccc(S(=O)(=O)N(C)CC(=O)Nc2cccc(C(C)=O)c2)cc1C,5
CC(C)(C)C(=O)CSc1nnc(-c2ccco2)o1,-44
